# Bfl-1 A1 inh: inhibitors of the anti-apoptotic protein A1, read as caspase activation; AID 2462; hit rate 0.066% among 330,000; caspase activation, % (concentration not given with the values); MEF A1-2A-BIM cells, Caspase-Glo 3/7 luminescence, 3 h; percent of clofoctol response, vehicle zero;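 active = over half of replicate activation scores above 10%, or exactly half above 10 with the replicate mean above 10; inconclusive = replicate mean below 10 yet half the replicates above 10; inactive = over half of replicates below 10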;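 note: wells of about 30 µL received 50 nL stock; many hits fall short of the cut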
# E coli growth: E. coli growth inhibition | Escherichia coli growth, OD600, 23 h; hits give low values | OD600 absorbance (no concentration beside the values) | hit rate 0.21% among 330,000;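 active = OD600 absorbance below the run mean of sample wells minus 3.6 SD, in any replicate, cut at about 0.56 in these data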;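 note: stock transfer was 300 nL into about 60 µL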
# B2AR ag: activates human beta-2 adrenergic receptor causing internalization; Am2.2-beta2AR cells, FAP receptor internalization, flow cytometry; reference of the scale not given here; response, % (no concentration beside the values); hit rate 0.43% among 340,000;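 active = response above a set limit, near 3 SD of response in nonfluorescent compounds, cut at about 42% in these data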;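 note: stock transfer was 100 nL into about 11 µL; a reference agonist was the positive control; negative values mostly stem from fluorescent compounds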
# Target sequence (P07550 whole entry, looked up): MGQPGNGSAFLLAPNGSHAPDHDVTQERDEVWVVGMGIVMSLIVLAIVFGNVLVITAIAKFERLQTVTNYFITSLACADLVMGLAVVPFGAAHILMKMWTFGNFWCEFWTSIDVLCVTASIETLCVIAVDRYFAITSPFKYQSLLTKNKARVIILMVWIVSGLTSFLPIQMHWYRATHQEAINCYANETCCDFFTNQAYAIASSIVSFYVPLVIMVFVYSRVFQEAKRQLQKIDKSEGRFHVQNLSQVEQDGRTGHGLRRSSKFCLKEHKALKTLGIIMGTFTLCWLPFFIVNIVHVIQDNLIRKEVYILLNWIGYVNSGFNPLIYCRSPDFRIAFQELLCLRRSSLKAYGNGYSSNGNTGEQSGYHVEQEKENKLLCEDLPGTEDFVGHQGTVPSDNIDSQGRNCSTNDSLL
# LANA-H2A inh: blocks KSHV LANA binding to histone H2A/H2B. cell-free LANA-H2A/H2B peptide, fluorescence polarization. hit rate 0.6% among 320,000. Q9QR71. inhibition, % (no concentration beside the values). AID 2629; in the data active = inhibition mostly above about 10%, no sharp cut-off; inactive = mostly below about 6.7%;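 note: stock transfer was 7.5 nL into about 10 µL; 0% = median of vehicle wells and 100% = median of positive control wells; one replicate is shown; the record names a cut of 25% in any replicate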
# UCH37 inh: blocks the human deubiquitinase UCH37; inhibition, % (test concentration not listed); purified proteasome/UCH37, Ub-AMC cleavage fluorescence; Q9Y5K5; hit rate 0.33% among 330,000;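 active = mean of two replicates above 20%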;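 note: 0% = compound-free wells with enzyme and 100% = wells lacking proteasome; stock transfer was 100 nL into about 20 µL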
# Target sequence (Q9Y5K5 whole entry, looked up): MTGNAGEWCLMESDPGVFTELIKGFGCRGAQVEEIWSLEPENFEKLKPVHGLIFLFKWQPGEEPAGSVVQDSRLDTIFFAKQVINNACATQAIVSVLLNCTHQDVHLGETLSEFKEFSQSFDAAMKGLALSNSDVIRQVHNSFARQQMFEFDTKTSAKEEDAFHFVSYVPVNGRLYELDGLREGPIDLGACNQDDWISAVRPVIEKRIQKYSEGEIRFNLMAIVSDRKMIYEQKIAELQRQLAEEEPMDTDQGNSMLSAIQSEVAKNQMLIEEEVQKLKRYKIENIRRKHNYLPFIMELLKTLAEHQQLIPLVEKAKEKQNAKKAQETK
#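 Schedule: 30 min plus 25 min, room temperature / Material: human UCH37 within purified proteasomes / Technique: AMC fluorescence intensity at 355/460 nm / Buffer or medium: pH 7.4 Tris-HCl (50 mM) with ovalbumin, ATP-MgCl2, DTT / Controls: wells without proteasome as full block, compound-free enzyme plus substrate as uninhibited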
# Vif TR-FRET: HIV-1 Vif–A3G interaction blockers – biochemical, TR-FRET, GST-Vif 1-94, biotin-A3G peptide, dose response retest, primary screen (AID 1117319). TR-FRET GST-Vif / biotin-A3G peptide binding; higher % means a stronger effect; test concentration not given here; strong numbers were not always called active. one-dose inhibition, %; IC50 in µM for titrated hits. hit rate 0.57% among 260,000;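 active = above the screen mean plus three standard deviations and confirmed in dose response; inconclusive = results disagree or hit not tested in dose response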;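 note: Vif residues 1-94 fused to GST binding biotinylated APOBEC3G peptide 110-148; 0% = full assay without inhibitor and 100% = GST in place of GST-Vif; retest series ran down from 100 µM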
# HNF4A DNA FP: change in binding of human HNF4 alpha to DNA; HNF4a-FITC DNA binding, fluorescence polarization, 1 h; activity change, % at 10 µM; hit rate 0.3% among 360,000; P41235; in the data active = activity change above about 30%, passing the limit was not always enough;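 note: controls were the assay level and a saturating level of protein; the project sought stronger binding though the title names inhibitors; some compounds called inactive have numbers as strong as hits; positive values seem to mean higher polarization but the record does not say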
# * hit, by the source's call; ? = inconclusive; . = no result given.
compound	E coli growth	HNF4A DNA FP	UCH37 inh	Vif TR-FRET	Bfl-1 A1 inh	LANA-H2A inh	B2AR ag
COc1cccc(OCc2cc(C(=O)NC(C)c3cnn(C)c3C)no2)c1 (stereo not drawn)	0.71	-2.6	3.2	9%	-1.6	-2.0	-3
c1ccc(-c2noc(CN3CCOCC3)n2)cc1	0.65	1.3	0.5	18%	-0.9	-1.1	-1
Cc1ccc2[nH]c3c(c2c1)CCCC3NC(=O)CCl (stereo not drawn)	.	0.4	.	.	5.3*	0.0	-5
O=S(=O)(NCCN1CCCC1)c1ccc(Br)cc1	0.65	-1.5	2.2	13%	-1.3	0.3	3
O=C(Cn1cnc2ccccc2c1=O)NCC1COc2ccccc2O1 (stereo not drawn)	0.7	0.4	-4.3	-1%	-0.1	-1.9	-5
COc1ccc(N(C(C)C(=O)N/N=C/c2ccc(OC)c(OC)c2)S(C)(=O)=O)cc1 (stereo not drawn)	.	6.4	.	1%	0.1	19	-5
CCc1nc(SCC(=O)c2cc(C)ccc2C)n[nH]1	0.72	-1.5	3.3	-1%	-0.5	2.1	6
COc1ccc(-c2cc(C(F)(F)F)nc(S(=O)(=O)CCCC(=O)Nc3cccnc3Cl)n2)cc1OC	0.71	1.2	-88	.	.	.	34
OC(COC(c1ccc(Cl)cc1)c1ccc(Cl)cc1)CN1CCc2ccccc2C1 (stereo not drawn)	0.68	-1.2	1.0	3%	0.5	-8.1	0
COCCN1C2=C(C(=O)CC(C)(C)C2)C(c2ccc(O)c(OC)c2)C2=C1CC(C)(C)CC2=O	0.68	-0.8	-3.2	.	0.8	1.4	2
O=C(O)c1cc2nc(-c3ccccc3)cc(C(F)(F)F)n2n1	0.66	-0.6	3.3	18%	-0.3	5.5	.
O=C1CCc2cc(S(=O)(=O)NC(Cc3ccccc3)C(=O)NC3CCCCC3)ccc2N1 (stereo not drawn)	0.79	2.1	6.2	-1%	0.0	-2.7	-2
CC(=O)Nc1ccc(C(=O)/C=C/c2ccco2)cc1	0.64	-4.5	0.0	.	0.3	-0.2	3
O=S(=O)(c1ccc2ccccc2c1)N1CCN(S(=O)(=O)N2CCOCC2)CC1	0.79	2.2	1.9	2%	0.0	-6.5	-4
CC(C)(C)c1ccc(/C=N/N2CCN(c3ccccn3)CC2)cc1	.	-2.8	.	3%	0.6	-1.1	4
COc1ccc(OC)c(NC(=O)CN2C(=O)C(=O)N(Cc3ccccc3)C2=O)c1	0.69	2.1	-2.7	.	-0.9	-4.3	1
CC1(C)C(C#N)=C(N)OC2=C1C(=O)CCC2	0.68	-6.2	4.1	1%	0.3	18*	6
O=C(Nc1ccc(N2CCOCC2)cc1)C1CCCCC1	0.74	2.5	0.5	25%	-0.7	-2.2	-2
CCn1c(N)c(C(=O)NCCCOC)sc1=S	0.76	-3.1	0.9	2%	0.2	0.5	3
CCOCCCNS(=O)(=O)c1ccc(NC(=O)C2CC(=O)N(c3ccc(C)cc3)C2)cc1 (stereo not drawn)	0.68	-1.8	0.6	4%	-0.9	-5.3	-14

# New compounds follow
compound	E coli growth	HNF4A DNA FP	UCH37 inh	Vif TR-FRET	Bfl-1 A1 inh	LANA-H2A inh	B2AR ag
COc1cc(NC(=S)NCCC(c2ccccc2)c2ccccc2)cc(OC)c1	0.71	4.5	1.8	-10%	-0.7	-2.7	-3
CSc1c(-c2ccccn2)c(N)nn1C(=O)C1CCC1	0.65	2.2	1.8	?	-0.6	-1.1	2
CN(CC(=O)Nc1nc2ccc(F)cc2s1)S(=O)(=O)c1ccc(Cl)cc1	0.63	4.3	1.0	-7%	-0.2	0.1	3
CCOC(CCc1c(C)nc(NC(C)=O)[nH]c1=O)OCC	0.67	4.1	2.2	-8%	0.2	-1.4	-6
CC1CC(C)CN(C(=O)c2cc3c(s2)CCC3)C1 (stereo not drawn)	0.78	1.1	6.7	4%	0.4	-0.1	-3
Nc1nc(SCC(=O)Nc2cc(C(F)(F)F)ccc2N2CCOCC2)n[nH]1	0.71	-1.4	-0.4	4%	0.3	-2.2	-1
CSCC[C@H](NC(=O)Nc1ccccc1C)C(=O)O	0.7	1.4	4.4	-2%	0.3	3.5	-4
CS(=O)(=O)c1ccc(NS(=O)(=O)c2ccc(Cl)c(C(=O)NC3=NCCS3)c2)cc1	0.67	-3.8	-0.3	10%	0.8	-1.2	10
Cc1nc2nc3c(c(=O)n2[nH]1)CCC3	0.74	-1.5	-0.8	1%	1.5	-0.7	-9
CCN(CC)C(=O)C1CCCN(Cc2cccc(F)c2)C1 (stereo not drawn)	0.71	5.0	0.1	2%	0.4	0.2	7
COC(=O)[C@@]12CCCCN1[C@H](c1ccc(-c3ccccc3)cc1)[C@H]1C(=O)N(C)C(=O)[C@H]12	.	-2.0	-1.8	.	-0.5	-1.2	-12
COc1ccc(CN2CCCC(C(=O)N3CCCCC3)C2)cc1OC (stereo not drawn)	0.67	-2.1	0.3	-6%	1.3	3.3	2
Cc1cccc(NC(=O)Nc2ccc3c(c2)OCO3)n1	0.74	0.7	1.5	-20%	-4.6	0.0	-3
CCCCC(=O)OCC(=O)N1N=C(c2c[nH]c3ccccc23)C(O)C1c1ccc(OC)cc1 (stereo not drawn)	0.66	-1.1	-9.7	.	-0.1	-1.8	4
NC(N)=N/N=C/c1cccc(Cl)c1Cl	.	-1.1	.	8%	-0.5	-16	20
CC(C)NC(=O)CC(=O)N/N=C\c1ccccc1C(=O)O	.	-0.9	.	-1%	1.2	-1.6	-6
C/C(=N/NC(=O)c1ccc2c(c1)OCO2)c1cccc(NC(=O)C(C)(C)C)c1	.	-0.8	.	-4%	0.1	1.8	-7
O=C(NS(=O)(=O)c1ccc2c(c1)OCCO2)c1ccccc1	0.73	-2.0	3.6	1%	-0.8	-5.5	-7
COc1ccc(S(=O)(=O)CCc2nnc(NC(C)=O)s2)cc1	0.69	2.0	3.1	.	-0.7	-4.8	0
O=C(O)c1ccc(N/N=C/c2ccc3c(c2)OCO3)cc1	.	-0.7	.	-4%	-5.9	-0.1	-5

# A few values from the results shown:
# CC1CC(C)CN(C(=O)c2cc3c(s2)CCC3)C1 (stereo not drawn) – Vif TR-FRET = 4%
# Nc1nc(SCC(=O)Nc2cc(C(F)(F)F)ccc2N2CCOCC2)n[nH]1 – LANA-H2A inh = -2.2

# Further entries.
compound	E coli growth	HNF4A DNA FP	UCH37 inh	Vif TR-FRET	Bfl-1 A1 inh	LANA-H2A inh	B2AR ag
COc1cc(C2CC(=O)N3CN(c4ccccc4C)CSC3=C2C#N)cc(OC)c1OC (stereo not drawn)	.	.	.	18%	0.0	3.6	.
Cc1ccc2nc3sc(C(=O)N4CCCc5ccccc54)c(N)c3cc2c1	0.73	39*	3.6	2%	-0.8	-8.8	-53
COc1ccc(/C=N/N=C/c2ccc(OC)c(OC)c2)cc1OC	.	1.7	.	-5%	-0.7	1.0	3
Cc1cc(Br)ccc1NC(=O)CN(C)C(=O)CN1C(=O)NC2(CCCC2)C1=O	0.7	-0.3	3.5	2%	0.2	1.4	8
CCN(Cc1ccc(NC(C)=O)cc1)CC1CCCN(CCc2cccc(OC)c2)C1 (stereo not drawn)	0.65	-3.6	2.1	4%	1.6	7.9	2
CC(=O)c1ccc(Sc2ccc(C(C)=O)cc2)cc1	0.68	-1.0	4.3	.	0.0	-1.8	-9
COCCC(=O)N1CCCC(C(=O)c2ccc3c4c(cccc24)CC3)C1 (stereo not drawn)	0.66	3.2	-197	.	-0.2	5.0	3
CCOC(=O)c1cc(-c2ccc(C)cc2)n(CCC(=O)NCCCOC)c1C	0.72	1.6	-1.7	15%	0.7	-3.2	-1
Nc1ccccc1N1C(=O)c2cccc3cccc(c23)C1=O	0.63	5.2	8.5	.	-0.1	1.3	15
O=C(NNC(=O)c1ccc(Cn2cccn2)o1)NC12CC3CC(CC(C3)C1)C2	0.7	-5.0	0.1	0%	-0.7	-2.0	1
O=C(O)CCC1(C(=O)O)CCC(=O)c2ccccc21 (stereo not drawn)	0.72	2.7	2.3	-7%	.	.	2
COc1ccc(-c2nnn(CC(=O)N(c3cccc(O)c3)C(C)C(=O)NC3CCCC3)n2)cc1OC (stereo not drawn)	0.65	-5.5	3.3	8%	0.1	1.0	0
Cc1ccc(S(=O)(=O)N2CCN(C(=O)CSc3nncs3)CC2)cc1	0.64	-4.1	2.9	-4%	0.4	-1.8	-3
O=C(COc1ccc(Br)cc1CO)N1CCCc2ccccc21	0.67	5.1	3.0	.	0.7	11	-1
CCOC(=O)N1CCC(NC(=O)c2ccc3c(c2)N=C(C)c2ccccc2S3)CC1	0.69	2.2	2.1	2%	-0.4	-1.0	-7
COc1ccc(C=NNC(=O)CCCC(=O)NN=Cc2ccc(OC)c(OC)c2)cc1OC	.	-0.6	.	-4%	.	.	-3
COC(=O)c1ccc(NC(=O)Nc2ccc(OC)c(OC)c2)cc1	0.67	0.9	1.5	2%	-0.7	-2.7	10
CC(NC(=O)C(=S)N1CCN(C)CC1)c1ccccc1 (stereo not drawn)	0.76	-3.6	1.5	1%	-0.4	-4.6	-1
COc1ccc(C)cc1NC(=O)CCN1CCN(c2ccccc2F)CC1	0.63	-2.1	4.3	.	-0.7	0.5	-2
CCc1nnc(NC(=O)C2CCCN2C(=O)NC2CCCCC2)s1 (stereo not drawn)	0.71	-0.3	4.9	-4%	1.1	9.2	-5

# Next part.
compound	E coli growth	HNF4A DNA FP	UCH37 inh	Vif TR-FRET	Bfl-1 A1 inh	LANA-H2A inh	B2AR ag
COC(=O)[C@@H](NC(=O)Nc1ccc(S(N)(=O)=O)cc1)C(C)C	0.61	-1.5	3.3	-4%	0.5	0.3	-2
COc1ccc(CNC(=O)CCNC(=O)N2CCn3c2nc2ccccc23)cc1	0.69	-1.1	3.7	.	-0.4	1.1	-6
O=C1c2ccsc2SCCN1Cc1ccccc1	0.71	-1.4	6.2	1%	0.9	0.5	8
O=C1Nc2cc(C(=O)N3CCN(c4ccc(F)cc4)CC3)ccc2NC1CSCc1cccc(F)c1 (stereo not drawn)	.	102*	.	-7%	0.2	2.5	-8
CCN1CCN(C(=O)c2cc3c(=O)oc4ccc(C)cc4c3s2)CC1	0.7	-7.4	-0.2	-2%	0.3	0.4	-15
CN(CC(=O)Nc1ccc(OC(F)(F)F)cc1)C1CCCCC1	0.64	-4.2	3.1	0%	-0.3	1.2	-5
COCCNCc1nc2sc(C)c(-c3ccccc3)c2c(=O)[nH]1	0.69	-1.2	-2.1	-7%	0.9	0.2	-3
CN(C)S(=O)(=O)c1ccc(NC(=O)C2COc3ccccc3O2)cc1 (stereo not drawn)	0.71	1.1	-0.2	19%	-0.5	-1.0	5
O=C1/C(=C/c2ccccc2)SC(=S)N1CC(=O)N1CCCCC1c1cccnc1 (stereo not drawn)	.	3.8	.	.	-0.1	3.3	1
Cn1nc(C(F)(F)F)c(-c2ccccc2)c1NC(=O)CCC(=O)O	0.68	-0.2	0.7	.	0.3	1.7	-13
COc1ccccc1OCCCC(=O)NC(C)c1ccccc1 (stereo not drawn)	0.64	-3.1	4.3	30%	-0.5	0.8	-10
CCC(C(=O)O/N=C(\N)c1ccc(Cl)cc1)c1ccccc1 (stereo not drawn)	0.73	0.5	2.2	-1%	-0.6	-3.3	-7
CCOc1ccc(C2=NNC(c3cccnc3)=Nc3ccc(OC)cc32)cc1	0.65	-3.7	5.0	5%	0.5	-3.6	-1
Cn1c(=O)n(CCCOc2ccc(Br)cc2)c2ccccc21	0.66	2.0	-0.5	1%	-0.5	4.0	-9

# Source: PubChem BioAssay (several laboratories)
